miR-21 FLuc – miR-21 reporter, rising signal; HeLa miR-21 FLuc reporter, luciferase, 48 h; Potency, µM (top dose mostly 38.3 µM), without a hit: top-dose reporter change, positive = more light; 340,000 tested, under 10 active; active = well fitted rising curve with a large enough effect; inconclusive = small, poorly fitted or top-dose-only effect; inactive = no such curve, though single readings can be large or run the other way;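 note: % of control where 0% means no effect; miR-21 action dims this reporter so a rising signal means less miR-21 action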
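Compounds were titrated across several concentrations (up to approximately 40 uM) and incubated 48 hours with HeLa miR-21-FLuc reporter cells (miR-21 target sequence downstream of FLuc, endogenous miR-21). Readout was firefly luciferase luminescence after lytic detection reagent.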
Rango-impB inh – prevents formation of the Rango-importin beta complex; Rango CFP/YFP FRET sensor + importin beta, 45 min; Potency, µM (highest dose often 92.2 µM), for the others: top-dose inhibition of complex formation; 340,000 compounds, 0.031% hits; AID 540263; active = rising FRET ratio curve, often small or poorly fitted; inconclusive = mostly compound fluorescence or quenching in the first reads; inactive = flat curves in all reads;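 note: potency is the fitted concentration of half-maximal effect; 0% = DMSO wells and 100% = buffer wells lacking importin beta; nearly all actives have a fitted effect of over 15% in size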
Target sequence (Q14974 whole entry, looked up): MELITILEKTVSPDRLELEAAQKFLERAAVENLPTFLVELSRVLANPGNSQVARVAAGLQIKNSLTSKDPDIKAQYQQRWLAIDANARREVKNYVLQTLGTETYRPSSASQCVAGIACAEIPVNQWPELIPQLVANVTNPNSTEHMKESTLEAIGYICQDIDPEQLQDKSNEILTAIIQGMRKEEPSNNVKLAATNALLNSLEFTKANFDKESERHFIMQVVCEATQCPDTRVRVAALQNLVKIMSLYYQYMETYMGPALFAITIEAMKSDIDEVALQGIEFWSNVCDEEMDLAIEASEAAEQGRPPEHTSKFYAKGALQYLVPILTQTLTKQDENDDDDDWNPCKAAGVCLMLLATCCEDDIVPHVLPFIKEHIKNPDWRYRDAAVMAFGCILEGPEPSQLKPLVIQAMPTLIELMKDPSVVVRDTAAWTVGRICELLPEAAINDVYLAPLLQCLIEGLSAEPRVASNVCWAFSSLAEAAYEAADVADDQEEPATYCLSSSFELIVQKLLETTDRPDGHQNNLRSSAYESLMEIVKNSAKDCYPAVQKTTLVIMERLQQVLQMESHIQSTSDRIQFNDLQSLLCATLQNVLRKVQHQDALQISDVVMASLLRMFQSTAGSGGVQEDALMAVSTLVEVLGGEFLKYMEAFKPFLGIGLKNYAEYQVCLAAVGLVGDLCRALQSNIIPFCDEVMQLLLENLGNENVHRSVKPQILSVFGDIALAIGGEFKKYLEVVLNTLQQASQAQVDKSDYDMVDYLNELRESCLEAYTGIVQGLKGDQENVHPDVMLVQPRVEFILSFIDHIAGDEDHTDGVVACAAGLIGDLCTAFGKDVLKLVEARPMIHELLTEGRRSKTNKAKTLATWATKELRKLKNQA
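FRET biosensor (snurportin 1 IBB flanked by EYFP and cerulean), 50 nM, with compound 5 min, then 0.125 microM importin beta in PBS, 1 mM DTT, 0.02% Tween-20, 0.1% BSA. CFP/YFP ratio read after 45 min at room temperature; pre-read flags interference.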
GLA inh pH 4.5 – alpha-galactosidase A (human) inhibition, pH 4.5; P06280; purified enzyme, 4-MU-alpha-Gal fluorescence, pH 4.5; activity change, negative = inhibition, % at 105 µM; 230,000 tested, under 10 active; AID 1467; inconclusive = small, poorly fitted or top-dose-only inhibition, or a rising curve; inactive = flat fitted curve, though single readings scatter; no compound was filed as active;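 note: 0% = full activity with enzyme and -100% = basal without enzyme; dose as in the result columns while the protocol names 77 µM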
Rango dissoc inh – prevents RanGTP from dissociating the Rango-importin beta complex; Biochemical FRET Rango-importin beta, RanGTP-induced dissociation; Potency, µM (doses to about 46.1 µM), without a hit: top-dose activity change, negative = inhibition; 340,000 compounds, 0.071% hits; AID 540253; active means falling FRET ratio curve, often poorly fitted, with flat reads before Ran was added; inconclusive means other falling curves, or compound fluorescence or quenching; inactive means flat or rising ratio curve;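 note: potency is the fitted concentration of half-maximal effect; % of control where 0% means no effect; nearly all actives have a fitted effect of over 45% in size; -100% = wells without RanGTP and RCC1; the record marks most hits as doubtful in a second field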
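FRET read at 45 min, room temperature: inhibitors block the CFP/YFP signal rise when RanGTP (0.6 uM Ran, 2 mM GTP, 0.2 uM RCC1) frees Rango (0.1 uM) from importin beta (0.25 uM). Pre-read after 5 min compound exposure flags interference.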
The depositor's hits bear a star; ? = inconclusive; · = not tested or not shown; [ ] = another dose, or the depositor's remark. Some of the compounds tested; the hit share may differ from the screen's.

miR-21 FLuc	GLA inh pH 4.5	Rango dissoc inh	Rango-impB inh	smiles
-51%	-3	6%	1.3%	CCOC(=O)c1sc(NC(=O)c2ccc(Br)o2)cc1C
-54%	·	-16%	0.1%	COc1ccc(-c2csc(NC(=O)CSc3nc4ccccc4c(=O)[nH]3)n2)cc1
·	·	-20%	0.3%	Cc1sc2ncnc(N3CCC(C(=O)Nc4ccc(Cl)c(Cl)c4)CC3)c2c1C
0%	2	7%	-3.4%	CCN(CCn1cccn1)Cc1c(C(=O)N2C[C@@H](C)O[C@@H](C)C2)nc2ccc(Cl)cn12
5%	-3	7%	3.5%	CC1(C)C/C(=N\O)c2cc3c(nc2C1)CCCC3
17%	5	-12%	-2.0%	CN(Cc1ccccc1)c1ncnc(N)c1[N+](=O)[O-]
3%	·	2%	2.7%	O=C1CC(O)(c2ccccc2)C(c2ccccc2)=C1c1ccccc1 (stereo unspecified)
-2%	1	-11%	-4.9%	COc1ccc(NS(=O)(=O)CC23CCC(CC2=O)C3(C)C)cc1 (stereo unspecified)
-1%	-2	-14%	-4.3%	CC(C)CNC(=O)COC(=O)Cc1ccc(Cl)cc1
5%	-2	?	?	COc1cc(C2C(C(=O)c3ccc(C)o3)=C(O)C(=O)N2c2cc(C)on2)cc(OC)c1OC (stereo unspecified)
-51%	9	-18%	-1.2%	O=C(Cc1ccccc1)n1nc(-c2ccco2)nc1SCc1ccccc1
-3%	-5	2%	4.1%	Cc1cc(C)c(NC(=O)CCCN2CCOCC2)c(C)c1
-11%	-24	12%	-3.4%	COc1ccc(NC2CC(=O)N(CCc3ccccc3)C2=O)cc1 (stereo unspecified)
2%	·	-11%	0.1%	CCCn1c(=O)c2ccccc2n2c(SCCNCCO)nnc12
-4%	-3	-4%	0.6%	CCOc1cc(C)c(C(C)C)cc1S(=O)(=O)n1ccc(C)n1
·	·	-3%	0.1%	COc1ccc(CCC2(C)OCC(CCCCO)O2)cc1 (stereo unspecified)
·	·	-3%	1.1%	CC1(c2nnc(-c3cccc(Cl)c3)o2)CC(c2cccc(Cl)c2)=NO1 (stereo unspecified)
-1%	7	-4%	0.5%	O=C(Nc1ncnc2sc3c(c12)CCCCC3)c1ccco1
1%	-8	13%	0.0%	Cc1ccc(Nc2ccc(N)cc2S(=O)(=O)O)cc1
-6%	3	21%	-1.6%	O=C(O)CNC(=O)CCCn1nnc2ccccc2c1=O
-1%	-12	-14%	-0.4%	CCOc1ccc(CCNC(=O)C2CCCN(c3nn4c(=O)cc(C)nc4s3)C2)cc1 (stereo unspecified)
1%	-2	-14%	0.1%	CN1CCN(C(=O)NCC23CC4CC(CC(C4)C2)C3)CC1
-2%	-1	-18%	1.1%	c1ccc(-n2nnnc2NCCCN2CCOCC2)cc1
-17%	0	1%	-0.2%	CC(C)(C)C(=O)Nc1ccc(C(=O)NNC(=O)Cc2ccccc2)cc1
-2%	-1	-2%	-0.1%	COc1ccc(C(=O)NCc2ccc(C(=O)NCC(OC)OC)cc2)cc1OC
-25%	-5	2%	0.4%	COC(=O)Nc1nnc(-c2ccco2)s1
·	·	9%	-3.6%	COc1cc(OC)c(C(=O)OCC(=O)NCC2CCCCC2)cc1OC
2%	-4	-14%	-0.2%	O=C(CCc1ccccc1)NNC(=O)Cc1ccccc1
-16%	-14	-10%	4.7%	O=C(O)c1ccc(COc2ccccc2/C=C2\NC(=O)N(Cc3ccccc3)C2=O)cc1
-9%	3	16%	1.1%	CCS(=O)(=O)NCCCCc1ccccc1
1%	-11	6%	?	Cc1ccc2[nH]c(=O)c(CN(Cc3ccc4c(c3)OCO4)Cc3nnnn3C3CCCC3)cc2c1
1%	-11	-12%	-4.3%	Cn1c(-c2ccccc2O)cc2ccccc21
-24%	-1	3%	-0.6%	COc1cc(SC)ccc1C(=O)NCCOc1ccc(Cl)cc1
-18%	·	35%	6.1%	Cc1ccccc1-c1ccc(CN2CCN(C)C(CCO)C2)cc1 (stereo unspecified)
0%	3[21.1 µM]	-10%	-0.4%	COc1cc(NC(=O)CSc2nc3c(c(=O)[nH]2)CCCC3)cc(OC)c1OC
-12%	8	-16%	-0.5%	CNc1nc(SC)nc(N2CCOCC2)n1
-6%	·	6%	4.6%	Cc1cc(C)cc(NC(=O)Cc2ccc(NC3=NC4CS(=O)(=O)CC4S3)cc2)c1 (stereo unspecified)
0%	-2	11%	0.0%	CCOC(=O)c1c(NC(=O)CCCN2CCOCC2)sc2c1CC(C)(C)OC2
-4%	-2	-1%	0.1%	CC(C)C(=O)N(c1ccc(F)cc1)C1C=CS(=O)(=O)C1 (stereo unspecified)
-6%	-3	4%	0.7%	Cc1cc(C(=O)Nc2cccnc2)no1

Exported with two lines to a compound: entries from further up.
Value order: miR-21 FLuc | GLA inh pH 4.5 | Rango dissoc inh | Rango-impB inh
CCOc1ccc(CCNC(=O)C2CCCN(c3nn4c(=O)cc(C)nc4s3)C2)cc1 (stereo unspecified)
→ -1% | -12 | -14% | -0.4%
CN1CCN(C(=O)NCC23CC4CC(CC(C4)C2)C3)CC1
→ 1% | -2 | -14% | 0.1%
c1ccc(-n2nnnc2NCCCN2CCOCC2)cc1
→ -2% | -1 | -18% | 1.1%
CC(C)(C)C(=O)Nc1ccc(C(=O)NNC(=O)Cc2ccccc2)cc1
→ -17% | 0 | 1% | -0.2%
COc1ccc(C(=O)NCc2ccc(C(=O)NCC(OC)OC)cc2)cc1OC
→ -2% | -1 | -2% | -0.1%
COC(=O)Nc1nnc(-c2ccco2)s1
→ -25% | -5 | 2% | 0.4%
COc1cc(OC)c(C(=O)OCC(=O)NCC2CCCCC2)cc1OC
→ · | · | 9% | -3.6%
O=C(CCc1ccccc1)NNC(=O)Cc1ccccc1
→ 2% | -4 | -14% | -0.2%
O=C(O)c1ccc(COc2ccccc2/C=C2\NC(=O)N(Cc3ccccc3)C2=O)cc1
→ -16% | -14 | -10% | 4.7%
CCS(=O)(=O)NCCCCc1ccccc1
→ -9% | 3 | 16% | 1.1%
Cc1ccc2[nH]c(=O)c(CN(Cc3ccc4c(c3)OCO4)Cc3nnnn3C3CCCC3)cc2c1
→ 1% | -11 | 6% | ?
Cn1c(-c2ccccc2O)cc2ccccc21
→ 1% | -11 | -12% | -4.3%
COc1cc(SC)ccc1C(=O)NCCOc1ccc(Cl)cc1
→ -24% | -1 | 3% | -0.6%
Cc1ccccc1-c1ccc(CN2CCN(C)C(CCO)C2)cc1 (stereo unspecified)
→ -18% | · | 35% | 6.1%
COc1cc(NC(=O)CSc2nc3c(c(=O)[nH]2)CCCC3)cc(OC)c1OC
→ 0% | 3[21.1 µM] | -10% | -0.4%

The results go on:
miR-21 FLuc	GLA inh pH 4.5	Rango dissoc inh	Rango-impB inh	smiles
6%	·	-14%	-2.1%	COc1ccc(NC(=O)Cn2c(=O)n(CC3CCCO3)c(=O)c3cc(OC)c(OC)cc32)c(OC)c1 (stereo unspecified)
-18%	·	-8%	-0.2%	COc1ccc(/C(O)=C2/C(=O)C(=O)N(c3ccccn3)C2c2ccc(C(C)C)cc2)cc1 (stereo unspecified)
-67%	9	-7%	-3.5%	COc1ccc(/C(C)=N/NC(=O)c2ccccc2N)cc1
-11%	-3	2%	-5.3%	Cc1cnc(NC(=O)CSc2nnc(Cc3ccccc3)o2)s1
·	·	3%	2.6%	CCOc1ccc(NC(=O)C2CC3CCC2C3)cc1 (stereo unspecified)
0%	·	10%	0.5%	Cn1c(=O)c2c(nc(CN3CCN(C(=O)c4ccco4)CC3)n2CC(N)=O)n(C)c1=O
-3%	9	?	?	N#Cc1c(-c2ccccc2)cc(-c2ccccc2)nc1SCc1nnc(-c2ccccc2)o1
-15%	-1	19%	0.8%	CCCNC(=O)COC(=O)c1cccnc1Nc1ccccc1F
-8%	2	0%	5.2%	COc1cc2c3c(c1)c(N=NC(N)=S)c(O)n3C(C)(C)C=C2C
-14%	-8	-10%	-5.1%	COc1ccc(C2CC(=O)N(CC(=O)NCC3CCCO3)c3ccccc3S2)cc1 (stereo unspecified)
1%	·	-7%	3.2%	O=C(NC12CC3CC(CC(C3)C1)C2)C1CCCN1C(=O)Nc1ccccc1 (stereo unspecified)
-4%	-12	3%	6.9%	CNc1ccc(/C=C/C(=O)c2ccc3c(c2)OCCO3)cc1[N+](=O)[O-]
2%	·	3%	6.6%	Cc1ccccc1CCN(C(=O)c1csnn1)C(C(=O)NC1CCCC1)c1ccco1 (stereo unspecified)
0%	·	0%	-1.4%	O=C(CC(C(=O)O)c1c(F)cccc1Cl)c1ccc(Cl)cc1 (stereo unspecified)
-1%	-3	·	·	COC(=O)CSc1nnc2c(C)cc3cc4c(cc3n12)OCCO4
-7%	-3	?	0.4%	CC(C)C[C@H](NC(=O)Nc1ccc2c(c1)OCCO2)C(=O)O
·	·	19%	-1.5%	O=c1cc(CO)oc(C(Nc2ccccn2)c2ccccc2F)c1O (stereo unspecified)
3%	·	1%	1.8%	CCc1ccccc1-n1nnnc1SCC(=O)Nc1ccc(N2CCN(C)CC2)cc1
-9%	·	-20%	3.1%	Cc1ccc(F)c(NC(=O)CCOc2ccccc2C)c1
-11%	·	-5%	0.7%	COc1ccc(CCN(C)C(=O)C23CC4CC(CC(Cl)(C4)C2)C3)cc1OC
0%	-8	-4%	-1.1%	CCOCCOC(=O)C(C)Oc1ccc(Oc2ncc(Cl)cc2Cl)cc1 (stereo unspecified)
3%	·	0%	1.0%	COc1cc2ncnc(N[C@H](C)c3ccccc3)c2cc1OC
0%	0	2%	-0.1%	COC(=O)N/N=C/c1cc(Cl)cc(Cl)c1OCc1ccc(F)cc1
5%	2	-5%	-1.0%	COc1ccc(C(=O)NCCc2nc3cc([N+](=O)[O-])ccc3n2C)cc1
13%	-3	10%	0.7%	Fc1ccc(CNC(=S)Nc2ccc(OC(F)F)cc2)cc1
-8%	5	10%	0.4%	CC(=O)Nc1ccc(NC(=S)NC(=O)c2oc3ccccc3c2C)cc1
-65%	0	-4%	0.5%	CCCC(=O)Nc1sc2c(c1C#N)CCCCC2
-4%	13	1%	0.9%	O=C(CSc1nnc(-c2ccc3c(c2)OCCO3)o1)N1CCCC1
-3%	20	-14%	-3.4%	CC(C)(C)n1nnnc1C(c1cc2cc3c(cc2[nH]c1=O)OCO3)N1CCN(c2ccccc2)CC1 (stereo unspecified)
-8%	2	13%	-1.0%	CC(=O)NC(CSC(CC(=O)c1ccco1)c1ccc(C)cc1)C(=O)O (stereo unspecified)
-5%	0	2%	-0.6%	OCCC1CN(Cc2cccc(C(F)(F)F)c2)CCN1Cc1ccccc1 (stereo unspecified)
3%	·	1%	0.2%	CCOc1ccccc1N1CCN(C(=O)NCc2ccc(F)cc2)CC1
1%	·	-1%	3.2%	CC(C)N1CC(C(=O)Nc2ccc(F)c(Cl)c2)CC1=O (stereo unspecified)
7%	6	9%	4.6%	OCCNc1nc(Nc2ccc(O)cc2)nc2ccccc12
1%	3	10%	0.4%	O=C(CCCC(=O)N(CC(=O)NC1CCCC1)C1CCCC1)Nc1ccccn1
-6%	0	3%	-0.6%	CCOC(=O)c1c(C)n(C)c2ccc(OC(=O)c3ccco3)cc12
·	·	8%	-1.6%	COc1cccc(/C=C/C(=O)Nc2cc(S(=O)(=O)N3CCOCC3)ccc2OC)c1
9%	3	11%	0.7%	CC1CN(S(=O)(=O)c2ccc(C(=O)Nc3nc(-c4cc5ccccc5o4)cs3)cc2)CC(C)O1 (stereo unspecified)
-3%	3	-5%	0.2%	CCCn1c(N2CCN(C(=O)NCc3ccccc3)CC2)nc2ccccc21
-31%	-6	13%	-2.7%	CCc1ccc(NC(=O)NCCN2CCc3ccccc3C2)cc1
-2%	-13	8%	4.1%	CCc1cccc(NC(=S)N(CCOC)C(C)c2ccco2)c1 (stereo unspecified)
-13%	5	-6%	-0.2%	COc1ccc(C(=O)CN2C(=O)COc3ccccc32)cc1
-30%	·	23%	-3.3%	O=C(N/N=C/c1cccnc1)c1cccc(F)c1
-34%	·	13%	0.1%	Cc1c2cnn(CC(=O)NC3CCCC3)c(=O)c2c(C)n1Cc1ccccc1
